Source: PubChem
MLL AF4-AF9 inh = MLL-AF4/AF9 protein interaction inhibition. 350,000 tested, 0.47% active. inhibition, % at 10 µM. P42568. AlphaScreen, biotin-AF4 peptide binding to FLAG-AF9. AID 651704;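 active = every replicate reaching a set inhibition limit, whatever the replicate mean, cut at about 25% in these data; inconclusive = mean inhibition reaches that limit but some replicates miss it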;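 note: 0% = plate neutral control median and 100% = total signal loss; the record names both 10 and 1 µM as test concentration; the first replicate is given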
Target sequence (P42568 whole entry, looked up): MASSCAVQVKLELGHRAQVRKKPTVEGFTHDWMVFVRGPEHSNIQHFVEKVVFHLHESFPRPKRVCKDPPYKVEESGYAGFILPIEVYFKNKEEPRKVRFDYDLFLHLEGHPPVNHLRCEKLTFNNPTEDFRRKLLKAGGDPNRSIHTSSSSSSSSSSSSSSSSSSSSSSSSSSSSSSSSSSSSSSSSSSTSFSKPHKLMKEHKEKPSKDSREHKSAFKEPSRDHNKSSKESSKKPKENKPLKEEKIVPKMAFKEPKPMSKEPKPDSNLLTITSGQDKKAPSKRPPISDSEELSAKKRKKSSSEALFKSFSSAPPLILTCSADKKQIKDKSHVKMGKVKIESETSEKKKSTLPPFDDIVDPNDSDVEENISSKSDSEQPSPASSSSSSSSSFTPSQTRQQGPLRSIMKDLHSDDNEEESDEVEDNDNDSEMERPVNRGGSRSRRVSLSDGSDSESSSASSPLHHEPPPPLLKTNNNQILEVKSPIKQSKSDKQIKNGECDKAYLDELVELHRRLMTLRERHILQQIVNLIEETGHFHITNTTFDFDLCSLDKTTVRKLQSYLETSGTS
ALR inh = human ALR oxidase inhibition via reduced H2O2; purified ALR, DTT oxidation, H2O2 HRP-luminol luminescence; inhibition, % (concentration not given with the values); P55789; 290,000 tested, 3.8% active;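 active = mean and each replicate at 75% or more; inconclusive = only one of the two met; inactive = neither met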;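 note: stock transfer was 7.5 nL into about 7.5 µL; 0% = neutral wells and 100% = wells with inactivated enzyme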
Target sequence (P55789 whole entry, looked up): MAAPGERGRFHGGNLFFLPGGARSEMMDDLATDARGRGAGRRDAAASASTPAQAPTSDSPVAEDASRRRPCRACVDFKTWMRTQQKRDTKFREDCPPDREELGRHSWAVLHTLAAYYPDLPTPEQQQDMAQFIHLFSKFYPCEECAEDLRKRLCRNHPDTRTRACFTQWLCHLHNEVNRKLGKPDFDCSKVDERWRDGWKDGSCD
Ecoli rRNA inh = inhibitors of bacterial rRNA selective over humanized ribosomes. E. coli WT GFP vs humanized-ribosome RFP mutants, fluorescence, 24 h; active compounds read low; DMSO median 0, no signal -100. GFP signal change (wild-type ribosome), % (test concentration not listed). 350,000 tested, 1.6% active;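 active = significant combined selectivity score with lowered wild-type GFP, culture density cut under 30%, mutant RFP and density less affected; inactive = any of these conditions unmet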; note: one replicate is shown; some compounds called inactive have numbers as strong as hits
RanGTP-Imp inh = disruptors of Ran-importin-beta complex formation – biochemical, FRET, CFP-Ran, YFP-importin-beta, homogeneous, primary screen. 300,000 tested, 1.1% active. inhibition, % (concentration not given with the values). cell-free CFP-Ran/YFP-importin-beta FRET ratio;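 active = most replicates above 15%; inconclusive = exactly half above 15%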;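 note: 0% = DMSO wells and 100% = Ran loaded with GDP instead of GTP; wells of about 40 µL received 100 nL stock; the first replicate is given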
Beta apoptosis = blocks beta cell apoptosis. INS-1E cytokine-induced death, ATP luminescence, 48 h; percent of positive-control rescue, neutral wells zero. protection from apoptosis, % (no concentration beside the values). 300,000 tested, 0.8% active. AID 435005;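 active = all replicates at 75% or more, or half of them and the mean; inconclusive = half reach 75% but not the mean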;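 note: 0% = cytokine-treated negative control wells and 100% = positive control rescue; higher means more ATP so stronger rescue from cytokine killing; wells of about 40 µL received 100 nL stock; the first replicate is given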
FGF22 binding = binders of recombinant human FGF22 by thermal shift | SYPRO orange fluorescence; percent of sucrose octasulfate shift, DMSO zero | Q9HCT0 | 340,000 tested, 1.5% active | calls only at 9.99 µM;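 active = melting point raised past a set limit in the mean and every replicate; inconclusive = no clear call; three in four hits are not shown here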
Target sequence (Q9HCT0 whole entry, looked up): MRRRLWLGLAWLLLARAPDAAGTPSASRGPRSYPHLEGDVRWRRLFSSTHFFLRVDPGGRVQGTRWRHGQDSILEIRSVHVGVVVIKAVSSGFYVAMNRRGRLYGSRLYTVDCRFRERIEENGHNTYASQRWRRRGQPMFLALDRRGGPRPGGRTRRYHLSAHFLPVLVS
Calb FLC = C. albicans growth modulation with fluconazole. 300,000 tested, 0.57% active. C. albicans CaCi-2 (fluconazole-resistant clinical isolate) + fluconazole, Alamar Blue growth, 48 h. growth inhibition, % (no concentration beside the values). AID 1979;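 active = most replicates above 75%; inconclusive = exactly half above 75%; inactive = most below 75%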;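 note: all wells also contain fluconazole at 8 µg/ml as a sub-toxic cotreatment; 0% = median of DMSO wells and 100% = median of geldanamycin control wells; wells of about 8 µL received 7.5 nL stock; the first replicate is given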
T cruzi repl = blocks replication of Trypanosoma cruzi; inhibition, % (no concentration beside the values); T. cruzi beta-gal in NIH3T3, luminescence, 90 h; 300,000 tested, 1.4% active; AID 1885;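 active = mean inhibition across valid replicates above about 55%, limit read from the data; inconclusive = mean below that limit but half or more replicates reach it; inactive = mean below it, under half of replicates reach it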;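 note: signal also drops with host cell toxicity which is not excluded here; 0% = plate median of DMSO wells and 100% = zero luminescence signal; higher percent means less beta-gal luminescence so fewer parasites; stock transfer was 50 nL into about 50 µL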
Ecoli rRNA inh OD600 = also measured in Ecoli rRNA inh; calls as there; OD600 change, %; measured here: OD600 growth;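 optical density of the mix in the first replicate; 0 = DMSO median and -100 = no signal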
Ecoli rRNA inh RFP = further read-out of Ecoli rRNA inh, marked with its call; RFP signal change, %; measured here: RFP humanized mutant strains;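 first replicate; 0 = DMSO median and -100 = no signal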
The depositor's hits bear a star; i = inactive; ? = inconclusive; · = not tested or not shown. A portion of the library (hit frequency here may not be typical).

SMILES | MLL AF4-AF9 inh | ALR inh | Ecoli rRNA inh | Ecoli rRNA inh OD600 | Ecoli rRNA inh RFP | RanGTP-Imp inh | Beta apoptosis | FGF22 binding | Calb FLC | T cruzi repl
N#Cc1c(C(F)(F)F)cc(-c2cccc(Cl)c2)[nH]c1=O | · | 65 | · | · | · | 5.5 | 0 | · | 0 | -3
COc1ccc(OC)c(NC(=O)CSc2nnc3ccc(-c4ccccn4)nn23)c1 | -0.5 | · | 7 | 13 | 3.4 | ? | -1 | i | 1 | 2
CC(=O)c1ccccc1OCCCN1CCCCC1 | · | -3 | · | · | · | 12 | 4 | · | 2 | 1
Cc1oc2c(CN3CCCCC3C)c(O)ccc2c(=O)c1-c1ccc(Br)cc1 (stereo not given) | 7.7 | -1 | -5 | 2 | 2.8 | -1.9 | -5 | i | 2 | -16
NS(=O)(=O)c1ccc(-n2nncc2-c2ccco2)cc1 | -3.0 | -4 | -1 | 10 | -2.0 | 2.9 | -5 | i | 0 | -1
C/C(=N/NC(=O)Cc1cccc2ccccc12)c1cccs1 | · | -3 | · | · | · | -2.2 | 0 | · | -8 | -1
CCOc1ccc(C)cc1S(=O)(=O)Nc1ccc(Cl)cn1 | · | -9 | · | · | · | 19* | -6 | · | 7 | -3
OC(COc1ccc(Br)cc1)Cn1ccnc1 (stereo not given) | 2.3 | -4 | 6 | 7 | 1.3 | 2.6 | -3 | i | 8 | 16
CCCC(=O)Nc1ccc(C(=O)Nc2nc(CC(=O)OCC)cs2)cc1 | · | -12 | · | · | · | -1.6 | -1 | · | 23 | -4
O=C(Nc1nnc(-c2ccncc2)o1)c1ccc2ccccc2c1 | -0.9 | -15 | · | · | · | 4.9 | · | i | 90* | 17
CCC(Sc1nc2ccc(N)cc2s1)C(=O)Nc1nccs1 (stereo not given) | · | 99* | · | · | · | 0.0 | 2 | · | -39 | -1
CC(C)CCNC(=O)C(NS(=O)(=O)c1ccc2c(c1)c(=O)n(C)c(=O)n2C)c1ccccc1 (stereo not given) | -3.4 | -3 | 7 | 8 | -1.6 | 1.4 | 2 | i | -3 | -2
Cc1[nH]c(=O)[nH]c(=O)c1S(=O)(=O)N1CCN(c2cccc(Cl)c2)CC1 | · | · | · | · | · | 5.7 | 1 | · | -6 | 2
Cc1ccc(S(=O)(=O)CCC(=O)OCC(=O)NCC(=O)Nc2cccc(C)c2C)cc1 | -3.0 | 5 | · | · | · | 0.7 | -4 | i | -1 | -6
O=C(NCc1ccc(F)cc1)c1ccc(CS(=O)Cc2ccccc2Cl)o1 (stereo not given) | 1.7 | -1 | -8 | -11 | -2.2 | -2.7 | 12 | i | -11 | 0
Cc1ccc(SCCNS(C)(=O)=O)cc1 | · | -1 | · | · | · | -4.2 | -2 | · | -8 | 1
Cc1cccc(NC(=O)CNC(=O)COc2cccnc2[N+](=O)[O-])c1C | -1.0 | -6 | -2 | 0 | 0.3 | · | 1 | i | · | ·
CN1CCCN(C(=O)c2ccccc2Cl)CC1 | -0.1 | -2 | 22 | 16 | -0.2 | ? | -2 | i | -3 | -6
COCCN(CC(=O)Nc1cccc(C)c1C)C(=O)c1ccc(-n2cccn2)cc1 | 0.0 | -6 | -3 | -3 | 3.1 | · | 6 | i | · | ·
O=C(CSc1nc(O)c(Cc2ccccc2)c(=O)[nH]1)N1CCOCC1 | -4.6 | 41 | 6 | -2 | -8.2 | 2.4 | 0 | i | -2 | -13
O=C1C2CCCN2C(c2cccc(F)c2)N1c1cccc(Cl)c1 (stereo not given) | -0.8 | -7 | 0 | 2 | 0.2 | 4.1 | -4 | i | -1 | 8
CCOC(=O)c1c(C)c(-c2ccccc2)n(CC(=O)NCCCN(CC)CC)c1C | 4.7 | -10 | 5 | 5 | 0.7 | 1.4 | 2 | i | -25 | -16
NS(=O)(=O)c1ccc(CNC(=O)c2cc(-c3cccnc3)nc3ccc(Cl)cc23)cc1 | -13 | 1 | 5 | 5 | 3.2 | 1.6 | -3 | i | -1 | -2
COc1cc(NS(=O)(=O)c2ccc(N)cc2)nc(OC)n1 | -3.0 | · | 2 | 4 | -1.0 | 4.3 | 1 | i | -7 | -2
Cc1nc2sc3c(c2c(=O)o1)CCCC3 | · | 11 | · | · | · | 1.1 | · | · | -8 | 4
O=C(COC(=O)c1ccc2c(=O)n3c(nc2c1)CCC3)Nc1ccccc1F | -0.2 | 1 | 6 | 4 | 13 | -0.4 | -7 | · | 4 | -15
Cc1cc(C)cc(Nc2ncc3c(n2)CCCC3=O)c1 | · | -7 | · | · | · | 0.4 | -10 | · | 7 | -6
COc1ccccc1C(=O)N/N=C(\C)CC(=O)Nc1ccc(Cl)cn1 | -2.2 | 6 | 5 | -1 | 0.7 | 1.8 | -1 | i | -7 | -14
O=C(O)CC1(CC(=O)Nc2cccc(C(F)(F)F)c2)CCCC1 | -5.5 | -6 | 4 | 6 | 14 | 2.2 | -6 | i | ? | -13
O=C1OCc2ccc(NS(=O)(=O)c3ccc(C(F)(F)F)cc3)cc21 | -0.6 | 1 | -2 | -7 | 5.9 | 1.3 | 1 | i | 2 | -11
CN(C)CCCN(C(=O)CCS(=O)(=O)c1ccccc1)c1nc2cc3c(cc2s1)OCO3 | 0.1 | 42 | 9 | 10 | 2.5 | -7.6 | -17 | i | -1 | 34
CC(=Nc1cccc(O)c1)c1sc2ccccc2c1O | -5.3 | 44 | 3 | 3 | 6.1 | 29* | -4 | i | 39 | -5
CC(=O)c1cccc(N2C(=O)CC(N3CCN(S(=O)(=O)c4ccc(Cl)cc4)CC3)C2=O)c1 (stereo not given) | -2.1 | 4 | -6 | 4 | -3.0 | · | -6 | i | · | ·
CN(Cc1ccco1)C(=O)c1cc2c(s1)-c1ccc(Cl)cc1S(=O)(=O)C2 | 1.3 | 0 | -8 | -3 | -4.8 | 1.2 | -1 | i | 32 | -4
Cc1cc(Cl)ccc1NC(=O)c1ccc2c(c1)CCN2S(C)(=O)=O | -2.2 | 0 | 5 | 10 | -2.3 | -1.6 | 5 | i | 1 | -18
COc1ccc(C(=O)NC2=C(C#N)CCC2)cc1OC | 0.7 | -1 | 6 | 0 | 2.4 | 3.1 | -7 | i | ? | -12
O=C(c1ccco1)N(CC1CCCO1)c1nc(-c2ccccc2)cs1 (stereo not given) | · | -2 | · | · | · | -1.8 | 10 | · | 3 | 14
Cn1cnc(S(=O)(=O)N2CCc3ccccc32)c1 | · | 67 | · | · | · | 3.3 | -9 | · | 10 | -22
O=C1CC(c2ccccc2Cl)c2c(sc3c(=O)[nH]c(CCl)nc23)N1 (stereo not given) | · | 7 | · | · | · | 0.6 | 7 | · | -3 | 10
CCOC(=O)c1ccc(-c2cccc(C(F)(F)F)c2)nc1C | · | -1 | · | · | · | -1.4 | 0 | · | 27 | -1
COc1cc(/C=C/C(=O)N2CCCC2)cc(OC)c1OC | -3.8 | -5 | · | · | · | -2.0 | -1 | · | -7 | 11
CCOC(=O)Cc1csc(NC(=O)CN2CCN(CC)CC2)n1 | 0.2 | -2 | 10 | 0 | -0.5 | 3.1 | · | i | 3 | -20
COc1cccc2[nH]c(C(=O)NCc3ccccc3)cc12 | 3.3 | · | -2 | -3 | 2.7 | 0.2 | · | i | -3 | 0
CCN(CC)c1nc2ccccc2c(N)c1-c1ccccc1 | · | -3 | · | · | · | 3.0 | 9 | · | 3 | 21
Cc1cccc(C)c1Nc1ncnc(N)c1[N+](=O)[O-] | 4.7 | -3 | 13 | 7 | -6.2 | 5.7 | -4 | i | -3 | -2
COc1ccc(CC2(CO)CCN(Cc3cnn(C)c3)CC2)cc1 | 0.8 | · | 26 | 13 | 1.8 | -2.0 | · | i | 0 | 17
COc1ccc(C(=O)Nc2nnc(SCC(=O)NC3CC3)s2)cc1 | -1.2 | 2 | 5 | 16 | -0.8 | 1.1 | 2 | i | -5 | -9
CCc1cccc2c(C(=O)COC(=O)c3ccccc3)c[nH]c12 | 3.8 | -1 | -12 | -5 | -3.6 | 1.9 | -4 | i | 0 | 5
CCC(Cc1ccccc1)NS(=O)(=O)c1ccc2c(c1)NC(=O)CO2 (stereo not given) | 1.3 | -19 | 1 | 1 | -0.2 | 3.3 | · | i | -7 | 4
Cc1ccc(C(=O)Nc2ccc(N3CCOCC3)cc2)cc1S(=O)(=O)N1CCCCC1 | 3.0 | 4 | · | · | · | · | -5 | i | · | ·
CCN(c1ccccc1)S(=O)(=O)c1ccc(Cl)c(C(=O)NCc2ccco2)c1 | 2.2 | 1 | -21* | -11* | -2.6* | · | -11 | i | · | ·
O=C1CS/C(=N\N=C\c2ccco2)N1c1ccccc1 | 6.3 | · | 8 | 8 | -1.4 | -0.8 | 1 | i | -2 | -5
CCCn1cc(SCC(=O)NC2CCCC2)c2ccccc21 | -0.5 | 7 | -13 | -11 | -1.0 | 0.4 | -4 | i | 2 | -5
CCN(CC)CC(O)COC(c1ccccc1)c1ccccc1 (stereo not given) | -3.5 | 0 | 6 | 4 | -1.5 | 1.2 | -6 | i | 3 | -18
CN(C(=O)CSc1nnc(-c2ccco2)n1N)C1CCCCC1 | -2.0 | -4 | 15 | 8 | -1.1 | 3.1 | -4 | i | 2 | -27
CCOC(=O)C(Cc1ccc(NC(=O)/C(=C/c2ccc(OC(C)=O)cc2)NC(C)=O)cc1)N1C(=O)c2ccccc2C1=O (stereo not given) | · | 8 | · | · | · | -0.1 | -2 | · | 3 | 2
O=C(NCCc1ccccc1)c1ccccc1F | 1.6 | -3 | -4 | -8 | -3.8 | -1.5 | 4 | i | -19 | -1
CC(C)c1ccc(N(CC(=O)NCCc2ccccc2)C(=O)c2csnn2)cc1 | 0.8 | -6 | -4 | 3 | 0.1 | 0.5 | -1 | · | -3 | 5
CS(=O)(=O)N1Cc2ccccc2CC1C(=O)Nc1ccccc1C(N)=O (stereo not given) | · | -1 | · | · | · | ? | · | · | -20 | 2
C=CCn1c(NC(=O)CC)c(C(=O)OCC)sc1=S | · | 3 | · | · | · | -0.3 | · | · | -12 | -23

Next part
SMILES | MLL AF4-AF9 inh | ALR inh | Ecoli rRNA inh | Ecoli rRNA inh OD600 | Ecoli rRNA inh RFP | RanGTP-Imp inh | Beta apoptosis | FGF22 binding | Calb FLC | T cruzi repl
Cc1ccc([C@@H]2CC=C(C(=O)O)[C@H](c3ccc(F)cc3)N2S(=O)(=O)c2ccccc2C)cc1 | -1.7 | · | -18 | -46 | -9.9 | · | -1 | i | · | ·
CCCCOc1ccc(/C(O)=C(\C#N)c2nc3ccccc3[nH]2)cc1 | -2.3 | -17 | 4 | -4 | 2.6 | -2.2 | -3 | i | 1 | -18
CC(C)NCC(O)COCCOc1ccc(C(C)(C)C)cc1 (stereo not given) | · | -1 | · | · | · | 8.2 | -1 | · | 1 | 32
CCC(CC)C(=O)Nc1nc(-c2ccc3c(c2)CCN3C(=O)C2CC2)c(C)s1 | · | 6 | · | · | · | 5.7 | -1 | · | 7 | 19
Cc1ccc(S(=O)(=O)Cc2ccc(C(=O)NCCCN3CCCC3=O)o2)cc1 | · | -5 | · | · | · | ? | -3 | · | -31 | -4
